MARV entry inh: qHTS for inhibitors of binding or entry into cells for Marburg Virus; Marburg virus pseudotyped entry inhibition, cell reporter; control for the full effect not named in the record; about a third of the inactives were read at about 46 µM; Potency, µM (highest dose often 37.8 µM), without a hit: at the highest dose activity change, negative = inhibition, usual class: inhibitors; 300,000 compounds, 1.8% hits; AID 540276, 2011; active = well fitted inhibition curve with a large enough effect; inconclusive = small, poorly fitted or top-dose-only effect, or effect the other way; inactive = flat fitted curve, though single readings scatter; tested in HEK293 cells; about a fifth of its hits are not listed in these tables; also: % is scaled to controls: 0 for no effect and ±100 for the full control effect; luciferase read-out
NS1 function inh: qHTS Assay for Inhibitors of Influenza NS1 Protein Function | S. cerevisiae slowed by influenza A NS1, growth recovery by OD600 | Potency, µM (titrated, usually from 46.1 µM), for the others: at the top dose activity, positive = more growth | 270,000 compounds, 0.4% hits; also: actives are rising curves; nearly all actives have a fitted effect of over 50% in size
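Recovery from NS1-induced slow growth read by OD600 in budding yeast switched to galactose assay medium (pH 6.0, -URA) at 1:100 dilution. Compound 23 nl per well; the matching strain lacking NS1 serves as control.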
Lassa entry inh: qHTS for Inhibitors of binding or entry into cells for Lassa Virus | Potency, µM (top dose mostly 37.9 µM), without a hit: at the highest dose activity change, negative = inhibition, usual class: inhibitors | 300,000 compounds, 1.2% hits | Lassa virus pseudotype entry inhibition, cell reporter; control for the full effect not named in the record; active means well fitted inhibition curve with a large enough effect; inconclusive means small, poorly fitted or top-dose-only effect, or effect the other way; inactive means flat fitted curve, though single readings scatter; tested in HEK293 cells; also: % is scaled to controls: 0 for no effect and ±100 for the full control effect; nearly all actives have a fitted effect of over 50% in size; luciferase read-out
SARS PLP yeast: qHTS of Yeast-based Assay for SARS-CoV PLP; S. cerevisiae expressing SARS-CoV PLpro, growth rescue; control for the full effect not named in the record; Potency, µM (series often up to 32.9 µM), without a hit: at the highest dose activity, positive = growth rescue; 330,000 compounds, 0.19% hits; also: 0% is about no effect; nearly all actives have a fitted effect of over 55% in size; growth read by luminescence after 48 h
2A StopGo: High Throughput Screening for Foot and Mouth Disease Virus Antivirals. Potency, µM (highest dose often 57.9 µM), for the others: top-dose signal change, negative = less light. AID 1159524, 2015. 410,000 compounds, 1.2% hits. human cells with a luciferase reporter of 2A StopGo recoding; control for the full effect not named in the record; active = well fitted falling curve with a large enough effect; inconclusive = small, poorly fitted or top-dose-only effect; inactive = no such curve, though single readings can be large or run the other way; tested in HEK293T cells; also: % is scaled to controls: 0 for no effect and ±100 for the full control effect; nearly all actives have a fitted effect of over 45% in size; luciferase light after 4 h
Cruzain inh noDet: qHTS Assay for Promiscuous and Specific Inhibitors of Cruzain (without detergent). Potency, µM, without a hit: max response, negative = inhibition, most hits filed as inhibitors. 200,000 compounds, 2.3% hits. Cruzipain (Trypanosoma cruzi), P25779. AID 1476, 2009. purified cruzain, Z-FR-AMC fluorescence, no detergent; active = well fitted curve in the direction sought with a large enough effect; inconclusive = small, poorly fitted or top-dose-only effect, or another doubt; inactive = no such curve, though single readings can be large; an effect the other way counts as inactive or inconclusive;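 also: plate controls were enzyme without inhibitor for no effect and buffer without enzyme for full effect; nearly all actives have a fitted effect of over 40% in size; top concentration of the series not given in the record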
Target sequence (P25779 123-467 limits assumed): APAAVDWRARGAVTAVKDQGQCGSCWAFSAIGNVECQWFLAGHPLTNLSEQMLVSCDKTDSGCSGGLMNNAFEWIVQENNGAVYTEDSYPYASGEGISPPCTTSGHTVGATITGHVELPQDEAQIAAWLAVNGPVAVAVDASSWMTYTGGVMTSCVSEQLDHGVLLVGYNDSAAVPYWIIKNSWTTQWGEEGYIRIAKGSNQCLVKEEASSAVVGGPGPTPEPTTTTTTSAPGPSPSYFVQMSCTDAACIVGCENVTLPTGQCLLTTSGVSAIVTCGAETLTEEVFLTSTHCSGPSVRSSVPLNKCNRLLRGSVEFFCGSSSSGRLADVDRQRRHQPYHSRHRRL
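Purified cruzain at 1.5 nM, pre-incubated 15 min with compound at room temperature in 100 mM sodium acetate pH 5.5, 5 mM DTT, 0.00005% Triton X-100. Reaction started with 2 uM Z-FR-AMC; AMC fluorescence increase over 60 s gives rate.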
Cruzain inh Det: qHTS Assay for Promiscuous and Specific Inhibitors of Cruzain (with detergent) | Cruzipain (Trypanosoma cruzi), P25779 | purified cruzain, Z-FR-AMC fluorescence, 0.01% Triton | Potency, µM, inactives show max response, negative = inhibition, actives largely listed as inhibitors | 200,000 compounds, 0.43% hits | AID 1478, 2009; active = well fitted curve in the direction sought with a large enough effect; inconclusive = small, poorly fitted or top-dose-only effect, or another doubt; inactive = no such curve, though single readings can be large; an effect the other way counts as inactive or inconclusive;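 also: plate controls were neutral wells for no effect and buffer without enzyme for full effect; nearly all actives have a fitted effect of over 40% in size; top concentration of the series not given in the record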
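Purified cruzain (1.5 nM final) was preincubated with compounds for 15 min at room temperature in 100 mM sodium acetate pH 5.5, 5 mM DTT, 0.01% Triton X-100. Reaction started with 2 uM Z-FR-AMC; AMC fluorescence change over 60 s gave activity.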
RE007 growth inh: qHTS Assay for Inhibitors of the HIV-1 protein Vpr | Potency, µM (highest dose often 92.2 µM), inactives show at the highest dose activity change, negative = less growth | S. pombe RE007 Vpr strain, BacTiter-Glo ATP luminescence, 24 h; control for the full effect not named in the record | 360,000 compounds, 0.21% hits; active = well fitted falling curve with a large enough effect; inconclusive = small, poorly fitted or top-dose-only effect; inactive = no such curve, though single readings can be large or run the other way;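 also: % is scaled to controls: 0 for no effect and ±100 for the full control effect; nearly all actives have a fitted effect of over 50% in size; the assay follows cell death caused by Vpr and the record does not say whether a fall means rescue or toxicity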
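Fission yeast RE007 carrying one integrated HIV-1 vpr copy, seeded at OD 0.01 in PMG+AL medium with 23 nL pinned compound. Grown 24 h at 30 degrees; viability read by BacTiter-Glo luminescence after 5 min.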
Active calls of the source: *; u = inconclusive; x = not tested or not shown; & = joins results of further samples; [ ] = remark or other dose. Unless noted, calls follow the shape of the dose curve; as a rule, active means well fitted rising curve with a large enough effect; inconclusive means small, poorly fitted or top-dose-only effect; inactive means no such curve, though single readings can be large or run the other way. Potency is read from the fitted curve at half-maximal effect.

Molecule	MARV entry inh	Cruzain inh Det	2A StopGo	Lassa entry inh	RE007 growth inh	Cruzain inh noDet	SARS PLP yeast	NS1 function inh
Cc1ccn(CC(=O)N2CCCC(C(=O)c3cccc4ccccc34)C2)n1 (stereo not drawn)	-4%[46.1 µM]	x	-14%	-29%[46.1 µM]	-8%	x	0%	-2%
O=C(N/N=C/c1ccc(O)c(O)c1)c1cccc(S(=O)(=O)N2CCCC2)c1	16%	x	-20%	u	5%	x	-9%	x
CC(C)Oc1ccc(C(CC(=O)O)NC(=O)C2CCCCC2)cc1 (stereo not drawn)	0%	5.2%	-9%	23%	-9%	7%	14%	-2%
N#Cc1ccc(Cl)cc1NC(=O)CNCc1cccs1	-1%	x	31%[activator]	14%	-2%	x	0%	4%
O=C(NC1CCCCC1)C1CC(=O)N(Cc2ccccc2)C1 (stereo not drawn)	0%[46.1 µM]	x	-1%	3%[46.1 µM]	-22%	x	4%	0%
O=C(C1CC(=O)N(C2CCCC2)C1)N1CCN(c2cccc(C(F)(F)F)c2)CC1 (stereo not drawn)	-9%[46.1 µM]	x	u	0%	-9%	x	1%	x
COc1ccccc1NC(=S)N/N=C/c1ccc(O)cc1	-27%	-26%	-18%	u	3%	1%	1%	-9%
CCOC(=O)c1c(NC(=O)c2ccc(OC)c(OC)c2)sc2c1CCCCC2	x	-3.8%	-9%	28%[46.1 µM]	x	11%	x	x
CC(=O)N1CCc2ccc(C(=O)CN3CCN(c4cccc(C)c4C)CC3)cc21	0%	-0.1%	x	x	x	-7%	5%	5%
Cc1cc(CNC(=O)COc2c(F)c(F)cc(F)c2F)c2ccccc2n1	x	x	-22%	x	-12%	x	-2%	0%
COCCN(CCOC)Cc1c(O)ccc2c1O/C(=C\c1ccc(C)o1)C2=O	0%[46.1 µM]	x	36%[activator]	4%[46.1 µM]	4%	x	-3%	2%
Cc1ccc(C(=O)N2CCN(c3ccc(N4CCOCC4)nn3)CC2)cc1	u	x	-20%	5%	2%	x	-3%	x
Cc1ccc2[nH]c(=O)c(CN(CCCO)S(=O)(=O)c3c(C)ccc4nsnc34)cc2c1	-2%	-14%	x	5%	-22%	17%	-4%	-15%
CC1=NN(C(=O)c2ccc(Cn3nc(C)c([N+](=O)[O-])c3C)cc2)C(O)(C(F)(F)F)C1 (stereo not drawn)	-8%	-1.6%	-9%	39%[14.3 µM]	8%	-3%	0%	3%
CC1CCN(C(=O)c2ccccc2NS(=O)(=O)c2ccccc2)CC1	28%	x	31%[activator]	22%	-19%	x	-1%	19%
Cn1c(SCC(=O)Nc2sc3c(c2C#N)CCC3)nnc1C1COc2ccccc2O1 (stereo not drawn)	-9%&-9%	3.3%	-7%	18%	7%	-16%	1%	u
COCc1cc(C)nc(SCc2ccccc2)c1C#N	x	x	0%	x	3%	x	-3%	-22%
COc1ccc(CNS(=O)(=O)c2ccc(-n3cccn3)cc2)cc1	x	x	-19%	x	10%	x	0%	-18%
COc1ccccc1-c1ccc(=O)n(CC(=O)NCc2ccc3c(c2)OCO3)n1	13%	2.0%	11%	22%[14.3 µM]	-7%	-1%	-4%	-8%
CCc1cc2ccc(OC)cc2nc1SCC(=O)N1CCN(C(=O)c2ccco2)CC1	x	x	u	x	9%	x	0%	-47%
O=C(c1ccco1)N1CCN(CC(=O)N2CCCc3c2c(=O)oc2ccc(O)cc32)CC1	13%	-9.2%	31%[activator]	1%	17%	-13%	2%	-28%
N#C/C(=C\C1=C(N2CCOCC2)C(=C/c2cccc([N+](=O)[O-])c2)/CC1)C(=O)Nc1ccccc1F	19%	-5.7%	u	1%	1%	13µM*	0%	-7%
CC1=C(c2ccc(C)cc2)S(=O)(=O)N(Cc2ccc(C(=O)NCc3ccccc3)cc2)C1=O	x	-5.1%	-10%	-29%[46.1 µM]	x	u	x	x
COc1cccc(N2CC(=O)N(NC(=O)c3sc4nc(C)cc(C)c4c3N)CC2=O)c1	-14%	x	-11%	2%	19%	x	0%	-4%
Cc1nn(-c2ccccc2)c2[nH]c(=O)c(CNc3ccc4c(c3)OCCO4)cc12	11%	-6.6%	-11%	u	-19%	-8%	4%	-6%
O=C(NC(=S)N1CCCCCC1)c1ccccc1	x	x	-7%	x	-7%	x	-3%	-10%
CC1(C)C([N+](=O)[O-])C(c2ccccc2O)NC(c2ccccc2O)C1[N+](=O)[O-] (stereo not drawn)	5%[46.1 µM]	x	-26%	u	-8%	x	1%	2%
Cc1ccc(Nc2c(-c3ccsc3)nc3c(C)cccn23)cc1	-3%&-3%[46.1 µM]	-17%	-13%	3%[46.1 µM]	x	5%	x	x
O=c1[nH]c(CSc2nc3ccccc3s2)nc2ccccc12	x	x	16%	x	5%	x	2%	-3%
COCCNC(=O)c1ccc(CN2CCOCC2)cc1	0%	0.8%	-14%	3%	8%	9%	16%	2%
O=C(NC1CCCCC1)Oc1cc2oc(=O)sc2cc1Cl	-1%[46.1 µM]	x	25µM*	2%[46.1 µM]	u	x	-22%	-56%
COc1ccc(CCNC(=O)CSc2nnc(Cc3cccn3C)n2C)cc1OC	u	x	-1%	18%[46.1 µM]	-1%	x	8%	x
COc1ccc(OC)c(S(=O)(=O)N2CCN(c3ccccc3OC)CC2)c1	13%[46.1 µM]	x	-8%	-4%[46.1 µM]	12%	x	-1%	-7%
Cc1cc2c(OCC(O)CNCc3ccco3)cccc2[nH]1 (stereo not drawn)	9%[46.1 µM]	x	-7%	-19%[46.1 µM]	-8%	x	0%	6%
Cc1cc(NC(=O)c2cnn3cccnc23)nn1CC(=O)Nc1cccnc1	11%	-0.4%	12%	22%	-14%	3%	-1%	u
COc1cc(C(=O)O/N=C2/C=C(C)C(=O)C=C2C)cc(OC)c1OC	-6%[46.1 µM]	-6.1%	-17%	4%[46.1 µM]	-12%	16%	2%	-13%
CCc1noc(C)c1C(=O)Nc1nc(-c2ccc(OC)c(OC)c2)cs1	u	x	18µM*	u	0%	x	x	x
COc1ccccc1OCC(=O)Nc1c(C(=O)c2ccc(C)cc2)oc2ccccc12	4%[46.1 µM]	0.2%	-10%	u	x	12%	x	x
Cc1cccc(NC(=O)CSc2nnc(-c3cccs3)o2)c1	u	0.2%	20%	24%[46.1 µM]	x	-5%	x	x
COc1cc(CO)ccc1Oc1nnnn1-c1ccc(C(N)=O)cc1	3%	2.5%	0%	10%	-2%	7%	10%	2%
CN=C(C)/C(C(=O)OC)=C(/O)c1ccc(Cl)cc1Cl	-11%[46.1 µM]	x	15%	-6%	-2%	x	0%	-3%
N#C/C(=C/c1ccc(CNC(=O)C(=O)Nc2cc(Cl)cc(Cl)c2)o1)C(=O)NCc1cccnc1	3%	-3.1%	-8%	1%	-5%	12%	18%	0%
Cc1cccc(C)c1-n1c(C)cc(/C=C2\C(=O)NN(c3ccccc3)C2=O)c1C	u	-5.8%	29%	-19%	2%	3%	-8%	6%
NC(=S)Nc1cccc(-c2n[nH]c(=S)o2)c1	4%[46.1 µM]	x	-8%	-5%[46.1 µM]	32%	x	-1%	4%
O=C(Nc1cccc(S(=O)(=O)NC2=NCCC2)c1)C1CCCCC1	x	x	15%	x	-6%	x	1%	-3%
CCN(CC)CCCOc1ccc(C)cc1Br	u	3.7%	-5%	-25%	-12%	-10%	4%	0%
Cc1ccc(NC(=O)OCc2ccccc2S(C)=O)cc1 (stereo not drawn)	17%[46.1 µM]	x	35%[activator]	u	-2%	x	2%	x
COc1cccc(NC(=O)CSc2nnc(-c3ccoc3C)n2C)c1	-27%[46.1 µM]	x	7%	3%	6%	x	-2%	-3%
CC1(C2(O)CCCCC2)NCCc2ccccc21 (stereo not drawn)	-8%[46.1 µM]	x	-12%	-20%	1%	x	0%	x
C/C(=N\OCc1ccc(C#N)cc1)c1ccc(S(=O)(=O)N(C)C)cc1	x	x	7%	x	8%	x	0%	-7%
CC(C)C[C@H](NC(=O)N1CC(=O)Nc2ccccc21)C(=O)N[C@H](Cc1c[nH]c2ccccc12)C(=O)O	x	x	-1%	x	-15%	x	-1%	17%
Cc1cc(C)c(Cn2c3ccccc3c3cnn(CC(=O)NCCCc4ccccc4)c(=O)c32)c(C)c1	0%[46.1 µM]	-3.0%	14%	-10%[46.1 µM]	x	u	x	x
S=C(NCCC1=CCCCC1)Nc1ccccc1	-16%	-4.7%	22%	3%	5%	1%	0%	-118%
N#CCSCC(=O)Nc1ccc(F)cc1	14%	-2.0%	10%	25%	4%	-2%	-6%	14µM*
C=CCNc1cnn(-c2ccc(C)cc2)c(=O)c1Cl	0%	2.0%	-1%	7%	-2%	-2%	12%	3%
CC(=O)c1ccc(NC(=O)COC(=O)CCN2C(=O)c3cccc([N+](=O)[O-])c3C2=O)cc1	-6%[46.1 µM]	-4.0%	2%	7%[46.1 µM]	1%	-4%	-13%	-9%
CC1(C)CC(=O)C2=C(C1)OC(N)=C(C#N)C2c1ccoc1 (stereo not drawn)	4%[46.1 µM]	x	10%	6%[46.1 µM]	-2%	x	0%	x
CCOC(=O)CN1C(=O)C(CC)Oc2ccccc21 (stereo not drawn)	11%	4.5%	-2%	28%	-4%	-4%	0%	-2%
CCC(=O)Nc1cccc(C2=NN(c3ccccc3)C(c3ccc(OC)cc3)C2)c1 (stereo not drawn)	x	x	-11%	x	4%	x	-6%	4%
COc1ccc(C2=C(C=O)Cc3ccccc3O2)cc1	u	x	24%	u	2%	x	x	x
CC1(C)Cc2c(sc(NC(=O)Nc3ccccc3)c2C(N)=O)CO1	x	x	65%[activator]	x	5%	x	3%	6%
CCOC(=O)N1CCC(N2CCN(S(=O)(=O)c3ccc(OC)cc3)CC2)CC1	7%[46.1 µM]	x	-6%	-13%[46.1 µM]	-6%	x	1%	4%
CCCN(CCO)Cc1ccc(Br)cc1	17%	3.7%	x	1%	-10%	0%	5%	4%

Source: PubChem BioAssay (National Center for Advancing Translational Sciences (NCATS))
